PINK1 modulator: PINK1 expression modulation | hit rate 0.2% among 410,000 | Potency, µM (titrated, usually from 76.6 µM), for the others: at the highest dose activation (PINK1 increase), hits mostly activators | PINK1 immunofluorescence, high-content cytometry, 24 h; active = well fitted activation curve with a large enough effect; inconclusive = small, poorly fitted or top-dose-only effect; inactive = flat fitted curve, though single readings scatter; cell line not stated here;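 note: potency is the fitted concentration of half-maximal effect; % of control where 0% means no effect; nearly all actives have a fitted effect of over 65% in size; a mitochondrial uncoupler was the plate control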
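Compound titrations (5 concentrations, 24 h) on a stable cell line; DMSO and CCCP controls. Endpoint: fixed-cell PINK1 immunofluorescence with mitochondrial, cell and nuclear markers, scanned by microplate cytometer.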
D2 agonist: activates the human D2 dopamine receptor | P14416 | DiscoveRx PathHunter D2 beta-arrestin, luminescence, 90 min; 100% = 57 uM dopamine signal | activation, % (test concentration not listed) | hit rate 0.084% among 360,000; in the data active = activation above about 40%; inconclusive = about 15% to 40%; inactive = below about 15%; note: compound concentration not given in the record; the text of the record calls up to 30% inactive
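DiscoveRx PathHunter D2 beta-arrestin cells (2,100/well) attached overnight, then compound-stimulated 90 min at 37 C in HBSS/10 mM HEPES/0.1% Tween-20 buffer; beta-galactosidase complementation read by luminescence after 1 h at ambient temperature. Dopamine 57 uM final (EC100) as control.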
TRPV1 potentiator: enhances activation of the human vanilloid receptor TRPV1. Q8NER1. TRPV1-expressing cells, Fluo-8 calcium influx, capsaicin EC20 potentiation; host cell line not named in the record; control for the full effect not named in the record. potentiation, % at 8.33 µM. hit rate 0.02% among 320,000; active means potentiation above 80%; inconclusive means 30% to 80%; inactive means below 30%; note: 0% is about no effect
Target sequence (Q8NER1 whole entry, looked up): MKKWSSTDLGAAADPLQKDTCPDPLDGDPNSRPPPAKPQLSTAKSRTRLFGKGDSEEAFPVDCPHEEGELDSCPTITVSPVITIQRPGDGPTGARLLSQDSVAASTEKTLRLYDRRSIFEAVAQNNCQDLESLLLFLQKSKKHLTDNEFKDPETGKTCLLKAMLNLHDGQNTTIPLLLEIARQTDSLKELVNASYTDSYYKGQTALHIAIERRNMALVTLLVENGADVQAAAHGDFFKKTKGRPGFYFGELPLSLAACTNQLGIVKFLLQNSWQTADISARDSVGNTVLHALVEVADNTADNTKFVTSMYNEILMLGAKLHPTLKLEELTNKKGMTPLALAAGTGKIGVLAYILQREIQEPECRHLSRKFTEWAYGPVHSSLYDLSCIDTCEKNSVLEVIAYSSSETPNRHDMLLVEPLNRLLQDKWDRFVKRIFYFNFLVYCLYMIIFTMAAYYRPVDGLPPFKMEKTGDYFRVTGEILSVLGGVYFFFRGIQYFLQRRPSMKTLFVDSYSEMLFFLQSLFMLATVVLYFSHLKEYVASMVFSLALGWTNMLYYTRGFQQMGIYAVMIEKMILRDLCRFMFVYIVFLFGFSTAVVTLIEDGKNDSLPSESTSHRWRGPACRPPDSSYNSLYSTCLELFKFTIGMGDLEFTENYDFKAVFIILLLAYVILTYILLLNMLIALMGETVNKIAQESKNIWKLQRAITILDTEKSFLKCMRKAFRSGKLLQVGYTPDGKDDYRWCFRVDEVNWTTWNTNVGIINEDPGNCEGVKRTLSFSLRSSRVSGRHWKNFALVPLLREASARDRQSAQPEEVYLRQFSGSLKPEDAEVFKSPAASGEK
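Cells expressing TRPV1 were dye-loaded with Fluo-8 and read kinetically: 10 s baseline, 3 min after compound (agonist portion), then 2 min after EC20 capsaicin (allosteric enhancer portion). Calcium-bound dye fluorescence at 480/520 nm.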
D2 PAM: potentiates the human D2 dopamine receptor allosterically | hit rate 0.23% among 360,000 | potentiation, % (concentration not given with the values) | DiscoveRx D2 beta-arrestin cells, luminescence, 90 min; 100% = 57 uM dopamine signal; active = potentiation of 50% or more; inconclusive = 30% to 50%; inactive = 30% or less;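 note: compound concentration not given in the record; tested on top of an EC20 dose of dopamine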
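PathHunter D2 cells, attached overnight at 37 deg C, received compound in DMSO plus dopamine at EC20 (50 nM final) for 90 min at 37 deg C. Beta-arrestin recruitment was read as luminescence after 1 h with detection reagent at ambient temperature.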
Six1-Eya2 blk: blocks human Six1 binding to Eya2. Q15475+O00167. AID 651725. AlphaScreen GST-Six1/His-Eya2 binding, biochemical; stronger effect = lower value; control for the full effect not named in the record. activity change, % (test concentration not listed). hit rate 0.56% among 360,000; in the data active = activity change below about -65%; inconclusive = about -30% to -65%; inactive = above about -30%; note: % is set by controls: 0 for no effect and ±100 for the full control effect; compound concentration not given in the record
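AlphaScreen with GST-Six1 and His-Eya2 (5X mix: 250 nM and 500 nM), glutathione donor and nickel acceptor beads; buffer 50 mM Tris pH 8.0, 300 mM NaCl, 1 mM TCEP; 1 h at 37 C in the dark.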
CtBP-E1A inh: inhibitors of CtBP/E1A interaction; AlphaScreen GST-E1A/His-CtBP binding, 1536-well; stronger effect = lower value; control for the full effect not named in the record; AID 651724; hit rate 0.49% among 340,000; activity change, % (no concentration beside the values); in the data active means activity change below about -65%; inconclusive means about -30% to -65%; inactive means above about -30%; note: % is set by controls: 0 for no effect and ±100 for the full control effect; compound concentration not given in the record
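Homogeneous bead-based format: GST-tagged E1A captured on glutathione donor beads, His-tagged CtBP on nickel acceptor beads; compounds precede bead addition by 2 h at 37 °C.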
Sfp PPTase inh: inhibitors of Bacillus subtilis Sfp phosphopantetheinyl transferase. Biochemical Sfp PPTase activity, qHTS. Potency, µM, without a hit: max response, negative = inhibition, most hits filed as inhibitors. hit rate 3.5% among 310,000. AID 1490; active = well fitted inhibition curve with a large enough effect; inconclusive = small, poorly fitted or top-dose-only effect, or another doubt; inactive = no such curve, though single readings can be large or run the other way;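 note: the enzyme is Sfp with the accession as filed and its product quenches rhodamine fluorescence; potency is the fitted concentration of half-maximal effect; 0% = enzyme reaction without inhibitor and -100% = no enzyme wells; top concentration of the series not given in the record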
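Reaction rates are the 30-min fluorescence difference (ex 525, em 598 nm) in wells containing 15 nM Sfp, 5 uM rhodamine-CoA and 12.5 uM BHQ-2-YbbR at pH 7.6 with 10 mM MgCl2.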
* hit, by the source's call; ? = inconclusive; . = no result given; & = joins results of further samples; [ ] = remark or other dose.

Compound	PINK1 modulator	D2 agonist	TRPV1 potentiator	D2 PAM	Six1-Eya2 blk	CtBP-E1A inh	Sfp PPTase inh
CCOc1ccc(OCCC(=O)N(CC)CC(=O)NCc2cccs2)cc1	0.8%	6.6	-9	2	7	8	.
C/C(=N/NC(=O)c1nnn(-c2nonc2N)c1COc1ccccc1)c1ccccc1	-1.4%	-1.8	-9	-2	1	.	6%
Cc1ccc(C)c(NC(=S)N2CCCCCC2)c1	0.4%	-3.2	-5	3	1	10	15%
COc1ccc(N2CCN(c3ncnc4sc(C(=O)NCC5CCCO5)c(C)c34)CC2)cc1 (centres undefined)	2.0%	-2.0	-8	-13	-11	-18	10%
O=C(Oc1ccccc1Cl)c1ccccc1P(=O)(O)O	15%[38.3 µM]	-0.3	7	2	7	5	11%
COC(C/C=C/[C@@H](O)[C@@H](C)OCc1ccccc1)OC	0.2%	-1.7	.	1	1	.	.
Cc1ccc(NC(=O)CCC(=O)N/N=C/c2ccccc2O)cc1	0.6%	3.4	-2	-7	10	.	-9%
Cc1csc(NC(=O)c2cc(=O)[nH]c3ccc(S(=O)(=O)N4CCOCC4)cc23)n1	-1.1%	-3.0	-4	-12	?	-70*	14%
O=C1/C(=C/c2cccnc2)SC(=S)N1c1ccc(O)cc1	2.8%	3.0	-1	-2	-2	-4	3%
O=C1CSC(c2ccccc2[N+](=O)[O-])N1CCc1ccccc1 (centres undefined)	-1.2%	0.0	-26	-3	3	3	0%
Cc1ccc(NC(=O)CN(Cc2ccco2)Cc2ccccc2O)cc1C	?	-0.3	-20	-15	-11	6	6%
COc1ccc(-n2nc(C(=O)NCC(=O)NCCc3ccc(OC)c(OC)c3)c3ccccc3c2=O)cc1Cl	9.7%	?	11	23	-16	-4	7%
O=c1c2ccccc2nnn1CCN1CCOCC1	-1.3%	3.9	3	-10	12	.	-8%
CC(C)(C)OC(=O)NCCCCCc1nnc(SCc2c(F)cccc2Cl)o1	-0.3%	-5.2	1	-4	12	17	7%
Cc1ccc2cc(C#N)c(SCC(=O)NCC3CCCO3)nc2c1 (centres undefined)	0.4%	-3.5	-6	-33	0	-2	5%
Cc1cnc(C(=O)OCC(=O)Nc2cc(Cl)cc(Cl)c2)cn1	.	2.4	3	6	5	9	7%
Nc1[nH]ncc1-c1ccccc1	3.4%	-6.1	-29	2	0	16	11%
CC(C)(C)n1ncc2c(=O)n(CC(=O)NCCc3ccccc3)cnc21	-1.3%	-4.3	2	5	1	4	13%
CC(C)C[C@H](NC(=O)c1[nH]cnc1C(=O)N[C@H](C)c1ccccc1)C(=O)OCc1ccccc1	10.0%	-3.2	8	-4	-8	.	18%
COc1ccc(C#Cc2c(-c3ccc(OC)cc3)oc3ccc(-c4ccc(OC)cc4)cc23)cc1	2.0%	-2.8	.	-6	1	3	.
CCN(CC)CCCNC(=O)c1nn(-c2ccc(OC)cc2OC)c(=O)c2ccccc12	0.5%	-2.9	-4	-16	-1	5	17%
COCCNC(=O)c1ccc2c(=O)n(CCCN3CCCC3=O)c(=S)[nH]c2c1	-0.3%	-4.3	4	-4	1	-9	50µM*
CCCCCCCNC(=O)C1(CC2CC(c3ccc(Cl)cc3)=NO2)CCN(C(=O)c2ccccc2)CC1 (centres undefined)	1.4%	-0.1	-1	-5	3	6	8%
CCC1CCCCN1C(=O)Cn1c(=O)n(CCC(=O)NCc2ccco2)c(=O)c2sccc21 (centres undefined)	0.0%	-0.7	2	5	9	5	12%
COc1ccccc1OCc1ccc(C(=O)NN)cc1	0.7%	1.7	-9	-6	-11	5	9%

Profiles, quoted from the list. Screens in order: PINK1 modulator | D2 agonist | TRPV1 potentiator | D2 PAM | Six1-Eya2 blk | CtBP-E1A inh | Sfp PPTase inh
Results for CCN(CC)CCCNC(=O)c1nn(-c2ccc(OC)cc2OC)c(=O)c2ccccc12 → 0.5% | -2.9 | -4 | -16 | -1 | 5 | 17%
Results for CC(C)(C)n1ncc2c(=O)n(CC(=O)NCCc3ccccc3)cnc21 → -1.3% | -4.3 | 2 | 5 | 1 | 4 | 13%
Results for COCCNC(=O)c1ccc2c(=O)n(CCCN3CCCC3=O)c(=S)[nH]c2c1 → -0.3% | -4.3 | 4 | -4 | 1 | -9 | 50µM*

Additional compounds follow.
Compound	PINK1 modulator	D2 agonist	TRPV1 potentiator	D2 PAM	Six1-Eya2 blk	CtBP-E1A inh	Sfp PPTase inh
Cc1cc(C)c(C)c(S(=O)(=O)N2CCN(CC(=O)c3c(N)n(Cc4ccccc4)c(=O)n(C)c3=O)CC2)c1C	0.4%	-2.1	9	8	-5	-1	5%
Cc1ccccc1OCC(=O)NC(=S)Nc1ccc(N2CCOCC2)c(Cl)c1	3.9%	4.6	-2	1	1	2	8%
Cc1cccc(C)c1-c1ccc(CN2C(CC(C)C)C(=O)N(Cc3cn(CC4CCCCC4)nn3)CCS2(=O)=O)cc1 (centres undefined)	0.2%	0.5	.	.	-4	-4	.
O=C(COC(=O)CCSc1ccccc1Cl)Nc1ccc(F)cc1F	-0.2%	1.0	-8	-3	17	14	30%
COc1ccccc1C1C2=C(N=C3SCC(=O)N31)c1ccccc1CC2 (centres undefined)	5.2%	2.9	11	0	5	-4	-14%
O=C1CC(c2ccsc2)c2cc3c(cc2N1)OCCO3 (centres undefined)	11%	4.8	6	2	-3	1	5%
CC(C)(C)c1nc(SCC(=O)NNC(=O)c2ccccc2)c2ccccc2n1	0.2%	1.5	-4	2	1	9	7%
COc1cc(OC)c(C2C(C#N)=C(C)NC(C)=C2C#N)c(C(=O)O)c1	-0.5%	-1.8	-6	0	5	52	-2%
CC1=CC(=O)C(C(C)C)=C/C1=N/OC(=O)c1cccc([N+](=O)[O-])c1	-1.6%[38.3 µM]	3.6	?	11	4	4	?
CC1C(=O)CCCCCCCCCC2C1(N1CCOCC1)CS2(=O)=O (centres undefined)	0.8%	-1.9	5	2	2	1	22%
N#Cc1ccc(/C=C2\CCCCn3c2nc2cc(C(=O)O)ccc2c3=O)cc1	0.2%	-2.4	-1	-3	-7	3	22%
CC(=O)Oc1ccc2c(=O)oc(-c3ccccc3C)nc2c1	0.2%	0.8	4	7	3	.	1%
C=CCOc1ccc(CNCCO)cc1OCC	-0.1%	0.6	1	-4	21	13	21%
CCC(C)NC(=O)CSc1nnc(-c2cc(-c3ccc(C)cc3)nc3ccccc23)n1N (centres undefined)	10%	-2.7	2	12	4	-3	17%
CCc1cc2cc(C)ccc2nc1SCC(=O)N1CCN(C(=O)c2ccco2)CC1	-3.1%	-1.6	-4	-2	0	-9	-19%
Cc1c(C(=O)NC2=NCCS2)cccc1[N+](=O)[O-]	0.6%	0.4	-8	-7	-4	6	2%
CCOC(=O)C1(C)/C(=N/Nc2ccc(S(N)(=O)=O)cc2)C(=O)C(=O)N1c1ccccc1 (centres undefined)	0.9%	-9.3	0	-9	2	-4	-5%
COc1ccc(CCNC(=O)c2noc(C(C)C)c2[N+](=O)[O-])cc1OC	1.7%	0.3	?	-4	0	2	14%
O=C(O)c1cc(S(=O)(=O)N(Cc2ccccc2)c2ccc(Cl)cc2)ccc1Cl	-1.9%	-2.7	15	-2	20	0	9%
CC1(Oc2cccc(F)c2)CCN(Cc2ccccc2OC(F)F)C1 (centres undefined)	9.5%	-6.9	.	-14	17	27	.
CC1(C)Cc2c(sc3nc4n(c(=O)c23)CCC4)CO1	1.3%	-0.8	?	5	-3	1	5%
CCCCN(C(=O)CSCc1c(C)noc1C)c1c(N)n(CCCC)c(=O)[nH]c1=O	-0.2%	-5.2	12	-6	3	3	.
CCc1ccc(NC(=O)C2CCN(C(=O)N3CCOc4ccccc43)CC2)cc1	0.9%	-3.8	-7	-4	0	2	11%
Cc1ccc(N2C(=O)[C@@H]3[C@H](C2=O)C2CCCN2[C@@H]3C(=O)c2ccccc2)cc1 (some centres undefined)	7.1%	-6.0	5	-16	-2	4	56µM*
CC(C)Oc1ccc(CCC(=O)N/N=C/c2ccc3c(c2)OCO3)cc1	5.9%	2.2	-7	-3	-1	3	7%

Compound	PINK1 modulator	D2 agonist	TRPV1 potentiator	D2 PAM	Six1-Eya2 blk	CtBP-E1A inh	Sfp PPTase inh
COc1cc(NC(=O)c2c3c(nc4ccccc24)CCC3)cc(OC)c1	7.4%	-3.9	.	-20	4	4	14%
CCN1CCN(S(=O)(=O)c2ccc(Cl)c(C(=O)N(C)Cc3cccc(Cl)c3Cl)c2)CC1	0.0%	-3.4	-22	-8	-1	-4	.
O=C(COc1ccc2c(c1)CCC2)N1CCN(c2cccc(C(F)(F)F)c2)CC1	8.2%	-3.5	8	-4	-3	.	11%
O=C(Cc1c(Cl)cccc1Cl)OCC(=O)N1CCOCC1	1.1%	3.9	.	7	7	4	.
CN=CC1=C(O)CC(C)(C)CC1=O	1.5%	0.3	-4	-25	-9	1	16%
CCC(C)(C)NC(=O)Cc1ccc(C)cc1	-3.5%	-2.6	5	-11	1	15	-8%
COc1ccc(P(=O)(COc2ccc([N+](=O)[O-])cc2)c2ccc(OC)cc2)cc1	-3.2%	-0.8	-14	-4	1	4	-3%
O=C(NC1CCCCC1)c1cc(C2CC2)on1	1.6%	-5.0	1	6	1	-4	3%
Cc1cc(C)cc(OCCCn2ccnc2)c1	0.1%	-5.9	5	-4	-2	-8	3%
Cc1sc2nc3ccc(N4CCCC4)nn3c(=O)c2c1C	3.9%	-4.3	4	-1	-26	-3	25µM*
COc1cccc(CN2CCN(Cc3nc4c(s3)CCCC4)CC2CCO)c1 (centres undefined)	-1.6%	6.5	6	-10	-3	.	9%
CC(=O)Nc1ccc(NC(=O)CSc2nnc(NC(=O)c3ccco3)s2)cc1	-0.1%	-3.2	4	-3	2	-18	-2%
COc1cccc2sc(Nc3nc(-c4ccncc4)cs3)nc12	7.0%	2.6	5	0	?	?	1%
O=C(NC(=S)Nc1ccc(Cl)cn1)c1cc([N+](=O)[O-])ccc1N1CCOCC1	10%	-1.8	3	-8	-23	-10	-13%
Cc1ccc(C(=O)CSc2nc(C)cc(SCc3nnc(-c4ccccc4)o3)n2)cc1	?	-3.7	-14	-9	-4	2	6%
COc1cc(C)c(C(=O)Oc2cc(C)c(C(=O)O)c(O)c2C)c(OC)c1C	0.3%&-0.8%	-3.1	27	-28	1	0	-15%&-14%
COc1ccc2[nH]c(=O)c(C3c4cc(OC)c(OC)cc4CCN3C(=O)c3ccco3)cc2c1 (centres undefined)	-1.1%	0.2	3	-4	-5	-2	-3%
